ClpP mod: qHTS Assay for Activators of ClpP. ATP-dependent Clp protease proteolytic subunit (Bacillus subtilis (strain 168)), P80244. purified B. subtilis ClpP, FRET peptide cleavage, 20 min. Potency, µM (highest dose often 57.5 µM), without a hit: at the top dose activity change, negative = active. 340,000 tested, 1.9% active. AID 651965, 2013; active = well fitted falling curve with a large enough effect; inconclusive = small, poorly fitted or top-dose-only effect; inactive = no such curve, though single readings can be large or run the other way; also: potency is read from the fitted curve at half-maximal effect; the source files actives as falling curves though it sought activators and does not explain the sign; nearly all actives have a fitted effect of over 65% in size; many hits overshoot -100%
Target sequence (P80244 whole entry, looked up): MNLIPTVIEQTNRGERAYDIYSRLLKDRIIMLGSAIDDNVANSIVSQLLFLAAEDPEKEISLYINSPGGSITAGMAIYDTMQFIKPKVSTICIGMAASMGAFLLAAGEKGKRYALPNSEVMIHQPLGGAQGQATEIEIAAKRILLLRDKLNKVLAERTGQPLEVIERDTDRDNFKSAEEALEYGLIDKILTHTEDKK
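FRET quenching reversal measured ClpP activation: 10 microg/mL B. subtilis ClpP at pH 8 with the FRET-FV decapeptide, read at 430 nm after 320 nm excitation. The 20-min minus 0-min signal was scaled between DMSO/no-enzyme wells and ADEP (5.8 microM final).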
TRPML1 ag: agonists of human TRPML1 channel. TRPML1-expressing cells, Ca2+ dye fluorescence, FDSS; host cell line not named in the record; reference of the full effect not given here. activation, % (no concentration beside the values). 410,000 tested, 0.12% active; in the data active = activation above about 50%; inconclusive = about 30% to 50%; inactive = below about 30%; also: 0% is about no effect; the text of the record puts the active cut at 80%
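In this qHTS format, compounds were pin-transferred onto Ca8-dye-loaded TRPML1-DL cells induced with Tet overnight, and intracellular Ca2+ fluorescence was recorded kinetically for 110 s after a 10 s baseline. A subsequent 4uM final 54-4 (EC80) addition followed by a second 110 s read served as the antagonist phase.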
TRPML1 inh: blocks the human TRPML1 channel. Q9GZU1. TRPML1-inducible cells, Ca2+ dye fluorescence, FDSS; active compounds read low; inhibition of EC80 agonist-evoked calcium signal. activity change, negative = inhibition, % (concentration not given with the values). 390,000 tested, 0.02% active. AID 624415; in the data active means activity change below about -50%; inconclusive means about -30% to -50%; inactive means above about -30%;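 also: stimulus is agonist 54-4 at its EC80 concentration; % is scaled to controls: 0 for no effect and ±100 for the full control effect; the text of the record puts the active cut at -80%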
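TRPML1-DL cells, Tet-induced overnight (~16 h, 37 °C) at 1,500 cells/well, were loaded with Ca8 no-wash dye plus quencher for 45-90 min at room temperature. Compounds were pinned during FDSS kinetic reading; agonist 54-4 at EC80 (4 uM final) then added.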
Sfp inh: blocks B. subtilis Sfp PPTase activity; Q9F4F7; Biochemical Sfp PPTase activity, qHTS; Potency, µM, inactives show max response, negative = inhibition, most hits filed as inhibitors; 310,000 tested, 3.5% active; AID 1490; active = well fitted inhibition curve with a large enough effect; inconclusive = small, poorly fitted or top-dose-only effect, or another doubt; inactive = no such curve, though single readings can be large or run the other way;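 also: the enzyme is Sfp with the accession as filed and its product quenches rhodamine fluorescence; potency is read from the fitted curve at half-maximal effect; 0% = enzyme reaction without inhibitor and -100% = no enzyme wells; top concentration of the series not given in the record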
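Fluorescence-quenching assay: 15 nM Sfp-PPTase preincubated 15 min at room temperature with compound, then 5 uM rhodamine-CoA and 12.5 uM BHQ-2-labelled YbbR peptide added. Fluorescence (ex 525/em 598 nm) read at start and after 30 min; difference gives rate.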
Menin-MLL FL inh: displaces fluorescein MLL peptide from human menin | Fluorescence polarization, fluorescein-MLL peptide displacement from menin | FP activity change, % at 61.4 µM | 290,000 tested, under 10 active | AID 1766; inconclusive = falling polarisation curve, or a change in total fluorescence; inactive = total fluorescence flat and polarisation flat or rising; no compound was filed as active; the % refers to the polarisation; negative = inhibition;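 also: % of control where 0% means no effect; inhibitors lower the polarisation; unlabelled MLL peptide was the positive control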
TRPV1 potentiator: enhances activation of the human vanilloid receptor TRPV1. Q8NER1. TRPV1-expressing cells, Fluo-8 calcium influx, capsaicin EC20 potentiation; host cell line not named in the record; control for the full effect not named in the record. potentiation, % at 8.33 µM. 320,000 tested, 0.02% active; active means potentiation above 80%; inconclusive means 30% to 80%; inactive means below 30%; also: 0% is about no effect
Target sequence (Q8NER1 whole entry, looked up): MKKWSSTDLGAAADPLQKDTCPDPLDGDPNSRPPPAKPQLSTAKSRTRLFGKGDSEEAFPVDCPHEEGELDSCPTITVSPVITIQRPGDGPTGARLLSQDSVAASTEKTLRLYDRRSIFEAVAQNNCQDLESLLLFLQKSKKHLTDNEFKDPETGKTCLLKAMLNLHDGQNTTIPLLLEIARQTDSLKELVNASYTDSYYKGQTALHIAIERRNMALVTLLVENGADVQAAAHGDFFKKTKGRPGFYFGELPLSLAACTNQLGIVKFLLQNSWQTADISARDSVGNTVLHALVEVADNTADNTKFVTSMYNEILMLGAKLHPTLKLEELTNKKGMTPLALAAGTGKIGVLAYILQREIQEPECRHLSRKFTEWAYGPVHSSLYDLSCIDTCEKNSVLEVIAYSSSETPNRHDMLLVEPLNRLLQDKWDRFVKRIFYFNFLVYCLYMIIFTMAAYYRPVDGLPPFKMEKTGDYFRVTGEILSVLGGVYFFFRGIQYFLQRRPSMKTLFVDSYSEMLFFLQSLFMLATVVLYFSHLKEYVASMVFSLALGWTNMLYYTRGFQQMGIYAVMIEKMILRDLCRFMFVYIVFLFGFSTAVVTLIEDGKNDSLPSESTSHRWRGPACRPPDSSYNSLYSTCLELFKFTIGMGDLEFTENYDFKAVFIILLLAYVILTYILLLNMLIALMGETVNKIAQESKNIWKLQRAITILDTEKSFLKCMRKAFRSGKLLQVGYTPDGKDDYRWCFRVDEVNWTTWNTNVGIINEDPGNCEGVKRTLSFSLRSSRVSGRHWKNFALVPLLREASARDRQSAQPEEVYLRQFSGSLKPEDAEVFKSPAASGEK
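TRPV1-expressing cells were cultured overnight at 35.5C and loaded with Fluo-8 calcium dye for 40 to 90 min at room temperature. After a 10 s baseline, compound was added and calcium influx was read kinetically for 3 min (ex 480/em 520 nm).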
PINK1 modulator: PINK1 expression modulation | 410,000 tested, 0.2% active | PINK1 immunofluorescence, high-content cytometry, 24 h | Potency, µM (doses to about 76.6 µM), for the others: at the top dose activation (PINK1 increase), hits mostly activators; active = well fitted activation curve with a large enough effect; inconclusive = small, poorly fitted or top-dose-only effect; inactive = flat fitted curve, though single readings scatter; cell line not stated here;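 also: potency is read from the fitted curve at half-maximal effect; % of control where 0% means no effect; nearly all actives have a fitted effect of over 65% in size; a mitochondrial uncoupler was the plate control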
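Readout is PINK1 immunofluorescence, quantified alongside mitochondrial, cell and nuclear markers by laser-scanning microplate cytometry. Cells from a stable line were exposed to compound titrations (5 concentrations) for 24 hours, with CCCP controls.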
Active calls of the source: *; ? = inconclusive; / = not tested or not shown; & = joins results of further samples; [ ] = another dose, or the depositor's remark.

SMILES	ClpP mod	TRPML1 ag	TRPML1 inh	Sfp inh	Menin-MLL FL inh	TRPV1 potentiator	PINK1 modulator
NNC(=S)NCc1cccnc1	-1.9%	1.3	-10	63µM*	8.7	2	-1.6%
Cc1ccc(NC(=S)N2CCC(C(=O)c3ccc(F)cc3)CC2)cc1C	/	0.1	19	/	/	/	0.9%
O=c1cc(O)nc2n1CCCS2	1.0%	2.8	5	-3%	7.8	8	-0.9%
CC(C)NC(=O)c1ccc2sc([C@H]3C[C@H](O)[C@@H](CO)O3)nc2c1	-0.2%	-0.4	/	/	/	/	2.9%
NC(=O)c1cccc2c1C(=O)N(C1CCCCC1)C2	-6.5%	0.1	40	-1%	2.5	-2	3.2%
CCc1nnc(NC(=O)Nc2ccc(OC)cc2)s1	-21%	0.7	-9	0%	0.1	-2	3.7%
Cc1csc(NC(=O)c2ccncc2)n1	-6.2%	/	/	2%	9.5	12	0.0%
COCC(=O)OC1CCn2c1nc1c2C(=O)C(C)=C(NC(C)=O)C1=O (stereo not given)	-2.0%	0.9	23	/	/	/	-0.3%
O=C(NNC(=O)C1CCCC1)c1ccc(F)cc1	/	-0.5	3	13%	1.9	-3	2.4%
O=C(NC1CCCC1)C(c1ccc(N2CCOCC2)cc1)N(C(=O)c1ccco1)c1ccccc1F (stereo not given)	/	1.1	17	?	-1.7	4	1.2%
COc1cc(CN(C2CC2)S(=O)(=O)c2ccccc2Br)cc(OC)c1	-1.1%	3.1	75	/	/	/	-0.3%
COCCCNC(=O)Cn1cc(C(=O)c2cccs2)c2ccccc21	0.8%	5.1	21	21%	1.1	0	0.4%
Cc1onc(-c2c(F)cccc2Cl)c1C(=O)OCN1C(=O)c2ccccc2C1=O	-3.9%	0.2	-2	2%	-2.6	-8	-1.6%
COc1cc(NC(=O)C2CCCN(S(=O)(=O)c3ccc4[nH]c(=O)ccc4c3)C2)cc(OC)c1 (stereo not given)	-1.6%	-0.3	10	-2%	-0.2	4	2.5%
CC(C)(C)OC(=O)CNC(=O)c1[nH]cnc1C(=O)N[C@@H](CCCCNC(=O)OC(C)(C)C)C(=O)OC(C)(C)C	-0.8%	2.2	1	20%	1.7	-12	1.8%
CC(=O)Nc1ccc(C(=O)N2CCCCC2c2cc(C(=O)Nc3ccccc3)no2)cc1 (stereo not given)	-3.8%	0.0	/	/	/	/	2.2%
CC(=O)c1ccc(Oc2cc(C)nc(NCc3ccccc3)n2)cc1	-1.0%	0.9	18	-4%	2.3	6	14%
CCN(CC)c1ccc(C(=S)NC2CCCCC2)cc1	-1.9%	0.7	4	32µM*	0.7	?	2.9%
CCOc1ccc(NC(=O)Cn2cc(C(=O)C3CC3)c3ccccc32)cc1	-3.5%	0.5&-0.4	-1&-7	28%	5.6	4	?
c1ccc(COc2ccccc2CNCc2cccnc2)cc1	-0.1%	0.4	-2	56µM*	-9.0	-3	5.9%[38.3 µM]

Another view of part of the listing above.
| compound | ClpP mod | TRPML1 ag | TRPML1 inh | Sfp inh | Menin-MLL FL inh | TRPV1 potentiator | PINK1 modulator |
| --- | --- | --- | --- | --- | --- | --- | --- |
| CC(=O)c1ccc(Oc2cc(C)nc(NCc3ccccc3)n2)cc1 | -1.0% | 0.9 | 18 | -4% | 2.3 | 6 | 14% |
| CCN(CC)c1ccc(C(=S)NC2CCCCC2)cc1 | -1.9% | 0.7 | 4 | 32µM* | 0.7 | ? | 2.9% |

(further entries)
SMILES	ClpP mod	TRPML1 ag	TRPML1 inh	Sfp inh	Menin-MLL FL inh	TRPV1 potentiator	PINK1 modulator
Cc1oc2c(c1C(=O)NC(Cc1c[nH]c3ccccc13)C(=O)O)CCCC2 (stereo not given)	-2.9%	0.1	39	-6%	-6.2	5	2.4%
CN(C)c1cccc(-c2nnc(SCC(=O)NCc3ccco3)n2C)c1	-1.8%	-0.9	/	/	/	/	0.4%
COc1cc(NC(=O)CCS(=O)(=O)c2ccc3c(c2)oc(=O)n3C)cc(OC)c1OC	-1.4%	-0.6	-6	4%	/	8	1.0%
CCCN1CCC(NC(=O)Nc2ccc([N+](=O)[O-])cc2)CC1	/	1.1	19	11%	-1.9	3	0.2%
O=C(CNC(=O)c1ccco1)N/N=C/c1ccc(O)c([N+](=O)[O-])c1	/	0.2	1	-3%	-0.1	-6	-1.5%
C#CC1(N2CCCCC2)CCCCC1	-1.9%	0.2	-10	/	/	/	4.0%
O=C(Nc1ccc(Cl)cc1F)C1CC1	-0.9%	1.2	-1	-1%	4.3	-7	-0.6%
CN(C)c1ccnc(-n2cccc2/C=N/O)c1C#N	/	0.5	17	10%	-3.2	-5	-1.1%
O=C(CN1CCN(c2ncc(C(F)(F)F)cc2Cl)CC1)N1CCN(c2ncc(C(F)(F)F)cc2Cl)CC1	0.6%	0.7	9	13%	1.5	-6	7.8%
O=C(c1ccccc1)N1CCN(C(=O)c2ccncc2)CC1	-1.0%	0.6	8	/	/	/	-3.7%
CC(=O)/C=N/Nc1ccccc1	-0.6%	-0.2	-1	6%	0.6	3	1.0%[38.3 µM]
Clc1ccc(/C=N/N2CCCCC2)cc1	0.9%	-0.5	-2	10%	?	11	1.2%
CC(C)OC(=O)C[N+](C)(C)CCN1C(=O)C2C(c3ccccc3)C=CC(c3ccccc3)C2C1=O (stereo not given)	/	-0.2	-2	-8%	-1.9	-2	0.4%
COc1cc2sc(NC(=O)c3ccco3)nc2cc1Cl	?	2.5	10	-6%	-2.3	-3	3.7%
COc1cc(C)ccc1OCCCn1c(-c2ccc(Cl)cc2)nc2ccccc2c1=O	1.6%	-0.9	-2	/	/	/	2.4%
CC(C(=O)NC(C)(C)C)N(C(=O)CS(=O)CC(=O)Nc1ccc(F)cc1)c1ccccc1F (stereo not given)	/	-0.2	7	21%	-0.7	-4	-1.5%
COc1ccc2cc(C3=CCCCC3)ncc2c1	3.6%	0.3	-2	/	/	-11	6.2%
COc1ccc(-n2c(=O)c(-c3ccc(Cl)cc3)nc3cnc(N4CCOCC4)nc32)cc1	/	/	/	9%	-5.2	/	2.5%
OCc1ccccc1CN1CCCCCC1	/	1.0	14	/	/	/	-0.3%
N/C(Cc1cccs1)=N\OC(=O)COc1ccc(Cl)cc1Cl	-1.0%	4.3	49	10%	1.2	-5	4.1%
Nc1cc([N+](=O)[O-])cc2oc(-c3ccccc3)cc12	1.0%	0.9	38	1%	?	15	6.3%
COc1ccc(NC(C)=O)cc1NC(C)C(=O)Nc1cccc(S(=O)(=O)N2CCOCC2)c1 (stereo not given)	-0.3%	-0.9	-9	/	/	-6	1.0%
N=c1c2ccccc2nnn1-c1ccc(C(F)(F)F)cc1	/	-0.2	-8	-13%	2.6	23	7.3%
CC(=O)Nc1ccc(C(=O)Nc2ccc3c(c2)OCO3)cc1	-1.0%	-1.2	7	7%	1.0	-14	-3.8%
CC1(C(=O)N2CC3(CC(c4cccc(NC(=O)COc5ccc(Cl)cc5)c4)=NO3)C[C@@H]2C(N)=O)CC1 (stereo not given in full)	-8.5%	-0.3	2	13%	1.0	21	0.5%
O=c1c2cc(Cl)ccc2nc(-c2ccccc2Cl)n1O	/	-1.1	-8	13%	0.8	9	1.3%
Cc1ccc(C(=O)COC(=O)CCC(=O)Nc2ccc(Oc3ccccc3)cc2)cc1C	-0.7%	-0.9	2	/	/	/	0.1%
CN(Cc1ncc[nH]1)C(=O)c1cc(COc2c(F)cccc2F)on1	-2.0%	2.2	-4	0%	-0.6	-2	1.2%
CC(=O)Nc1nc(C)c(-c2csc(Nc3ccccn3)n2)s1	-15%	1.9&0.0	0&6	-9%&-28%	-1.2&1.2	-5	-0.2%&-1.3%
CCc1cc(=O)[nH]c(SCc2cccc3ccccc23)n1	0.8%	2.8	16	-12%	0.0	?	1.2%
O=c1oc2ccccc2c(NCc2ccc(Cl)cc2)c1[N+](=O)[O-]	-1.2%	0.6	3	3%	-0.6	9	?
COc1cc2oc(=O)cc(-c3ccc(-c4ccc(N(C)C)cc4)cc3)c2c(OC)c1OC	-1.3%	-0.6	3	-19%	?	/	?
COc1ccc(OCc2cc(C(=O)N3CCOCC3)no2)c(Cl)c1	/	-0.5	-9	7%	-9.3	-16	0.3%
Cc1ncc(CN2CCC(C(=O)Nc3ccc(-n4cccn4)cc3)CC2)s1	-9.0%	-0.6	15	20%	0.5	-7	-2.2%
O=C(CCN1C(=O)C2C3C=CC(C3)C2C1=O)NC1CCCCC1 (stereo not given)	-2.8%	0.5	3	1%	2.1	5	-1.3%
Cc1c(N=Cc2nc3ccccc3[nH]2)c(=O)n(-c2ccccc2)n1C	-1.4%	-0.3	-9	-6%	-1.5	-9	-0.1%
COc1ccc(S(=O)(=O)Nc2c(C)nc3nc[nH]n3c2=O)cc1	-0.2%	-0.3&-0.5	4&-13	7%	-1.7	5	1.2%&2.2%
CCn1c2ccccc2c2cc(NC(=O)C(C)Oc3ccccc3)ccc21 (stereo not given)	-20%	1.4	3	9%	1.5	1	17%[38.3 µM]
CCCC(C(=O)NCCc1ccc(S(N)(=O)=O)cc1)c1ccccc1 (stereo not given)	/	3.3	0	14%	-12	-18	1.3%
CCc1ccc(C(=O)N2CCN(c3ccc(NC(=O)c4ccco4)cc3)CC2)cc1	1.2%	2.1	-7	3%	-0.4	8	-1.8%
COc1ccc(OC)c(CNC(=O)Cn2nc(C)c3c(C)n(-c4ccc(C)cc4)nc3c2=O)c1	-4.5%	1.6	-2	-9%	-4.1	1	1.8%
CCCC[C@@H]1CNC(=O)C(=O)N1CCc1cc(C(F)(F)F)cc(C(F)(F)F)c1	2.0%	-0.5	2	20%	-0.1	8	2.3%
Cc1nc2c(C#N)c[nH]n2c(=O)c1Cc1ccccc1	-18%	1.1	-2	4%	3.4	0	/
COc1ccc(C(O)c2nc(-c3cnn(C)c3)cs2)cc1 (stereo not given)	-2.6%	0.0	/	/	/	/	0.3%
CC(Oc1ccc(Br)cc1)C(=O)NCCCN1CCCC1=O (stereo not given)	1.1%	0.4	-16	/	/	/	-0.2%
Cc1ccc(S(=O)Cc2ccc(C(=O)NCc3ccc(OC(C)C)cc3)o2)cc1 (stereo not given)	-5.5%	-0.7	7	/	/	/	0.9%
CCOC(=O)/C=C/[C@H]1Cc2ccccc2CO1	-5.0%	0.8	20	/	/	22	4.0%
Cc1csc(NC(=O)C2CCCCC2)n1	-0.7%	0.0	9	10%	1.8	-1	-1.2%
O=C(O)Cc1ccc2oc(-c3cccnc3)nc2c1	/	0.0	20	9%	1.0	2	-0.2%
